E coli growth: blocks Escherichia coli growth; OD600, 23 h; active compounds read low; OD600 absorbance (test concentration not listed); actives 0.21% (n = 330,000);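 active = OD600 absorbance below the run mean of sample wells minus 3.6 SD, in any replicate, cut at about 0.56 in these data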;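 note: stock transfer was 300 nL into about 60 µL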
UCH37 DUB inh: blocks the human deubiquitinase UCH37. Q9Y5K5. purified proteasome/UCH37, Ub-AMC cleavage fluorescence. inhibition, % (test concentration not listed). actives 0.33% (n = 330,000);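 active = mean of two replicates above 20%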;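 note: 0% = compound-free wells with enzyme and 100% = wells lacking proteasome; stock transfer was 100 nL into about 20 µL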
Target sequence (Q9Y5K5 whole entry, looked up): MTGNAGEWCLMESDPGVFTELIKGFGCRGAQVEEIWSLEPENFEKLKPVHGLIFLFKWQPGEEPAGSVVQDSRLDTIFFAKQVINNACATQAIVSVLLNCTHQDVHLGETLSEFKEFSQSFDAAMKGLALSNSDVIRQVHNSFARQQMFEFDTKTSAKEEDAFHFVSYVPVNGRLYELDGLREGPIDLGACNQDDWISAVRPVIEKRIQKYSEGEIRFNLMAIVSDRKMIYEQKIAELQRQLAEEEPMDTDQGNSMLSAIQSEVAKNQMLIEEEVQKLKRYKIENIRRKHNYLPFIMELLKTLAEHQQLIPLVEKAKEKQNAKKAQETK
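Material: human UCH37 enzyme supplied as purified proteasome complex / Amount: 0.15 nM proteasome as dispensed / Buffer or medium: pH 7.4 Tris-HCl (50 mM) with ovalbumin, ATP-MgCl2, DTT / Times: preincubation 30 min, reaction 25 min, room temperature / Technique: AMC fluorescence from Ub-AMC cleavage, excitation 355 nm, emission 460 nm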
Active calls of the source: *; i = inactive. These rows are one share of the data; rates above refer to the full screens.

item	E coli growth	UCH37 DUB inh	Structure
1	0.66	6.0	Cc1ccc(S(=O)(=O)NN=C/C=C/c2ccccc2)cc1
2	0.67	9.0	Cc1ccsc1C=NNC(=O)c1cccnc1
3	0.67	4.7	O=C(CCC(=O)Nc1ccccc1)NN=Cc1ccccc1F
4	0.7	0.8	Nc1nonc1-n1nnc(C(=O)NN=Cc2ccccc2Br)c1CN1CCCC1
5	0.67	1.3	Oc1ccc(C=NN2CCN(C3c4ccccc4-c4ccccc43)CC2)cc1
6	0.73	3.5	CC(=NNC(=O)Cc1ccccc1)c1ccc(Cl)s1
7	0.67	3.5	O=C1C2C(C(=O)N1N=Cc1cc(Br)cc([N+](=O)[O-])c1O)C1C=CC2C12CC2 (stereo not drawn)
8	0.71	-1.1	COC(=O)c1ccc(C=NNC(=O)CC(=O)NCC(C)C)cc1
9	0.69	9.7	CON=C/C=C1/N(C)c2ccccc2C1(C)C
10	0.67	8.1	C/C(C=NNc1nc(N2CCOCC2)nc(N2CCOCC2)n1)=C/c1ccccc1
11	0.72	1.3	Cc1ccc(C=NNC(=O)C2CN(S(=O)(=O)c3ccccc3)CCN2S(=O)(=O)c2ccccc2)cc1 (stereo not drawn)
12	0.73	1.7	O=C1C2C3C=CC(C3)C2C(=O)N1N=Cc1cn(Cc2ccc(F)cc2)c2ccccc12 (stereo not drawn)

Further results follow.
item	E coli growth	UCH37 DUB inh	Structure
13	0.77	0.3	NC(=S)NN=Cc1ccc(-c2cccc([N+](=O)[O-])c2)o1
14	0.6	4.0	Cc1ccc(C(=O)NN=Cc2ccncc2)s1
15	0.7	-0.3	COc1ccc(C=NNC(=O)CSCc2ccc([N+](=O)[O-])cc2)cc1OC
16	0.67	0.6	C(=C\c1ccccc1)/CN1CCN(Cc2ccc3c(c2)OCCO3)CC1
17	0.71	-70	COc1cc(OC)c(OC)cc1C=NNC(=S)NCCN1CCOCC1
18	0.66	2.0	O=C(CNC(=O)c1ccc(Br)cc1)NN=Cc1cccnc1
19	0.69	8.4	CCOc1ccc(C=NNC(=O)C(C)N(c2ccc(OC)cc2)S(C)(=O)=O)cc1 (stereo not drawn)
20	0.69	10	Cc1ccc(C(=O)NN=Cc2c[nH]c3ccccc23)o1
21	0.71	5.2	CCn1c(SCC(=O)NN=C/C=C/c2ccco2)nnc1-c1ccc(OC)cc1
22	0.71	3.6	COc1ccc(NC(=O)ON=Cc2ccncc2)cc1
23	0.68	6.5	O=C(O)c1ccc(C=NN2CCN(Cc3ccccc3)CC2)cc1
24	0.69	6.5	COc1ccc(C=NNC(=O)Cn2cnc3ccccc3c2=O)cc1OC

Other compounds
item	E coli growth	UCH37 DUB inh	Structure
25	0.67	3.6	CN(Cc1c(C(=O)NN=Cc2cccs2)nnn1-c1nonc1N)c1ccccc1
26	0.68	6.4	Cc1cc(-c2ccccc2)nc(NN=Cc2ccc(O)cc2)n1
27	0.65	6.7	O=C(Cc1nnc(NC(=O)c2ccccc2)s1)NN=Cc1ccc(O)cc1
28	0.7	4.6	CCC(Nc1ccc(OC)cc1)C(=O)NN=Cc1ccc([N+](=O)[O-])cc1 (stereo not drawn)
29	0.65	-4.6	CCOC(=O)c1sc2ncn(N=Cc3ccc(O)c(OC)c3)c(=O)c2c1C
30	0.66	0.2	CCOc1ccc(-c2c(C(=O)NN=CC3CCCCC3)nnn2-c2nonc2N)cc1
31	0.72	i	COc1ccc2cc(C=NNC(=O)CN(c3ccccc3C)S(=O)(=O)c3ccccc3)c(Cl)nc2c1
32	0.72	7.9	COc1cc([N+](=O)[O-])ccc1-c1ccc(C=NNC(N)=O)o1
33	0.72	8.4	COc1c(C=NNc2ccc([N+](=O)[O-])cc2[N+](=O)[O-])c(C)nn1-c1ccccc1
34	0.72	1.9	CC(C)CNC(=O)CON=Cc1ccccc1Cl
35	0.71	3.3	COc1ccccc1/C=C/C=Nn1c(C2CCCCC2)n[nH]c1=S
36	0.68	2.9	Cc1nn(C)cc1C=NNC(=O)Cc1ccc([N+](=O)[O-])cc1

Other results follow.
item	E coli growth	UCH37 DUB inh	Structure
37	0.69	-2.1	Cc1n[nH]c(=S)n1N=Cc1ccc(Br)o1
38	0.83	-48	CCOC(=O)C=c1sc(=Cc2ccc3cc(OC)ccc3c2)c(=O)n1CC(=O)NCC1CCCO1 (stereo not drawn)
39	0.75	3.4	CC1=CCC(C(=O)O)(C(=O)NN=Cc2cccs2)C(c2ccc(Cl)cc2)C1 (stereo not drawn)
40	0.68	3.9	N#Cc1c(N=Cc2ccc(O)c([N+](=O)[O-])c2)sc2c1CCCC2
41	0.74	1.6	Cc1cc(C)n2nc(CCCCc3nc4nc(C)cc(C)n4n3)nc2n1
42	0.68	0.5	O=C(NN=Cc1ccc2c(c1)OCO2)c1cncc(Br)c1
43	0.66	3.2	COc1ccc(C=NNC(=O)COc2cccc3cccnc23)cc1OC
44	0.64	-0.1	O=C(NN=Cc1ccc(Cl)cc1Cl)c1cccc(N2CCCC2=O)c1
45	0.64	1.8	COc1ccc(C=NNC(=O)c2ccn[nH]2)cc1COc1ccc(F)cc1
46	0.7	3.1	O=[N+]([O-])c1cccc(C=NNc2ccccn2)c1
47	0.7	4.7	Cc1cccc(C(=O)NN=Cc2ccc3c(c2)OCO3)n1
48	0.7	3.4	CC(=O)N/C(=N/c1nc(C)cc(C)n1)Nc1ccccc1Cl

Part of the list above, set out differently.
nr	SMILES	E coli growth	UCH37 DUB inh
46	O=[N+]([O-])c1cccc(C=NNc2ccccn2)c1	0.7	3.1
37	Cc1n[nH]c(=S)n1N=Cc1ccc(Br)o1	0.69	-2.1
43	COc1ccc(C=NNC(=O)COc2cccc3cccnc23)cc1OC	0.66	3.2
45	COc1ccc(C=NNC(=O)c2ccn[nH]2)cc1COc1ccc(F)cc1	0.64	1.8
48	CC(=O)N/C(=N/c1nc(C)cc(C)n1)Nc1ccccc1Cl	0.7	3.4
47	Cc1cccc(C(=O)NN=Cc2ccc3c(c2)OCO3)n1	0.7	4.7

Next section
item	E coli growth	UCH37 DUB inh	Structure
49	0.72	1.7	CC(O)C(O)C(O)C(O)C=NNC(=O)c1ccccc1 (stereo not drawn)
50	0.73	1.4	CCCCNC(=S)N(C)N=Cc1sc(N2CCCCC2)nc1-c1cccs1
51	0.72	2.0	C=C(C)Cn1c(SCC(=O)NN=Cc2c(O)ccc3ccccc23)nc2ccccc2c1=O
52	0.66	0.4	COc1ccc(OCC(=O)NN=C2CCCCc3ccccc32)cc1
53	0.69	3.5	COc1ccc(C=NNC(=O)C(=O)N2CCCC2)cc1
54	0.73	0.8	Cc1[nH]c2ccccc2c1C=NNc1ccccc1[N+](=O)[O-]
55	0.66	11	COc1ccc(-c2cnnc(NN=Cc3ccc(OC)c(OC)c3)n2)cc1
56	0.71	2.4	C=CCOc1ccc(/C=C/C(C)=NO)cc1
57	0.69	4.6	COc1ccc(S(=O)(=O)NN=C(C)c2ccncc2)cc1
58	0.69	3.5	CCOC(=O)c1c(C)[nH]c(C(=O)NCc2ccco2)c1C
59	0.63	1.0	Cc1cc(C=NNC(=O)c2nn(C)cc2Cl)c(C)n1-c1cccc(Br)c1
60	0.72	16	O=c1c2c(O)cc(O)cc2oc2ccc(O)c(OC3OC(CO)C(O)C(O)C3OC3OC(CO)C(O)C(O)C3O)c12 (stereo not drawn)

Retrieved one by one from the entries so far (4):
item	E coli growth	UCH37 DUB inh	Structure
51	0.72	2.0	C=C(C)Cn1c(SCC(=O)NN=Cc2c(O)ccc3ccccc23)nc2ccccc2c1=O
56	0.71	2.4	C=CCOc1ccc(/C=C/C(C)=NO)cc1
53	0.69	3.5	COc1ccc(C=NNC(=O)C(=O)N2CCCC2)cc1
50	0.73	1.4	CCCCNC(=S)N(C)N=Cc1sc(N2CCCCC2)nc1-c1cccs1

(further entries)
item	E coli growth	UCH37 DUB inh	Structure
61	0.69	4.7	COc1cccc(C=NNc2nc(Nc3ccc([N+](=O)[O-])cc3)nc(N3CCCC3)n2)c1O
62	0.72	-26	CC(C)n1cc(C=NNC(=O)c2cc3c(ccc4ccccc43)o2)c2ccccc21
63	0.75	7.5	CCOC(=O)c1c(Nc2ccc(Cl)cc2)sc(C=C2C=Nc3ccccc32)c1O
64	0.69	0.7	C/C(C=NN1CCN(Cc2ccccc2)CC1)=C\c1ccccc1
65	0.68	5.6	C/C(C=NNC(=O)CSc1nc(C)cc(C)n1)=C/c1ccccc1
66	0.68	0.5	CC(=NNC(=O)c1cccnc1)c1ccc(-n2ccnc2)cc1
67	0.68	1.2	CC(=NNC(=O)COc1ccc(C(C)(C)C)cc1)c1ccc(-n2ccnc2)cc1
68	0.71	8.4	CC(=O)NN=C(C)c1cccc(NC(=O)c2cccs2)c1
69	0.66	3.2	CC(=NNc1nc(C)cc(-c2ccccc2)n1)c1ccccc1
70	0.7	4.0	O=C(NN=Cc1ccc(OC(=O)c2ccc3c(c2)OCO3)cc1)c1cncc(Br)c1
71	0.72	2.8	CS(=O)(=O)N(CC(=O)NN=Cc1ccc(OCC(=O)N2CCOCC2)cc1)c1ccccc1Cl
72	0.71	1.8	CC(=O)Nc1cccc(C(=O)NN=Cc2cccc(C)n2)c1

Further records:
item	E coli growth	UCH37 DUB inh	Structure
73	0.65	-19	Cc1ccc(NN=C(Cc2nc3ccccc3[nH]2)c2ccccc2)cc1
74	0.68	0.7	C=CCN1C(=O)C(Cc2ccc(Br)cc2)SC1=NN=Cc1ccco1 (stereo not drawn)
75	0.67	9.2	CC(=NNC(=O)c1ccc(N(C)C)cc1)c1cccnc1
76	0.68	15	COc1cc([N+](=O)[O-])cc(C=NNC(=O)C2COc3ccccc3O2)c1O (stereo not drawn)
77	0.64	13	CCOc1ccc2nc(N=Cc3c(C)[nH]n(-c4ccc(C)cc4)c3=O)sc2c1
78	0.64	1.0	CC(C)C=NNc1nc2c(c(=O)n(C)c(=O)n2C)n1C
79	0.66	6.8	CN(N=Cc1ccccc1O)C(=S)c1ccccc1
80	0.66	3.4	OC1(c2ccccc2)CC(=Nn2cnnc2)C=C1c1ccccc1 (stereo not drawn)
81	0.64	0.3	O=C(CON=Cc1ccc(OC(F)F)cc1)NCc1ccc(F)cc1
82	0.7	6.7	CON=Cc1cccn1-c1nccc(N(C)C)c1C#N
83	0.68	1.3	COCc1c(C(=O)NN=Cc2cccs2)nnn1-c1nonc1N
84	0.71	3.8	CN(C)c1nc(NCc2ccccc2)nc(NN=Cc2ccc3c(c2)OCO3)n1

Some of these compounds in order of molar mass, rising:
item	E coli growth	UCH37 DUB inh	Structure
79	0.66	6.8	CN(N=Cc1ccccc1O)C(=S)c1ccccc1
75	0.67	9.2	CC(=NNC(=O)c1ccc(N(C)C)cc1)c1cccnc1
83	0.68	1.3	COCc1c(C(=O)NN=Cc2cccs2)nnn1-c1nonc1N
81	0.64	0.3	O=C(CON=Cc1ccc(OC(F)F)cc1)NCc1ccc(F)cc1

More entries
item	E coli growth	UCH37 DUB inh	Structure
85	0.71	2.7	CC(=NNC(=O)C1CC1)c1ccc(N2CCOCC2)cc1
86	0.69	5.2	COc1cc(C=NNC(=S)Nc2cccc(S(=O)(=O)N(C)C)c2)cc(OC)c1O
87	0.65	4.9	ON=C(c1ccc(Cl)cc1)C1CC1c1ccccc1 (stereo not drawn)
88	0.64	5.2	CC(=NNC(=O)c1ccco1)c1ccc(Br)s1
89	0.63	-2.7	CN(C)Cc1c(C(=O)NN=Cc2ccccc2OCc2c(F)cccc2Cl)nnn1-c1nonc1N
90	0.7	8.4	Oc1oc(-c2ccccc2Br)nc1C=Nc1ccccn1
91	0.66	1.4	O=C(COc1ccc(Cl)cc1Cl)NN=CCCc1ccccc1
92	0.61	-7.9	COc1cccc(C=NNc2nc3ccccc3[nH]2)c1OC
93	0.66	6.5	O=[N+]([O-])c1ccc(C=NNc2nc(N3CCCC3)nc(N3CCCC3)n2)o1
94	0.67	-2.8	COCCNC(=O)C(=O)NN=C(C)CC(=O)Nc1ccc(Cl)cc1Cl
95	0.73	4.9	O=[N+]([O-])c1cccc(NN=Cc2cc([N+](=O)[O-])ccc2O)c1
96	0.69	5.6	Cc1cc(C(=O)NN=Cc2ccco2)n[nH]1

Additional entries.
item	E coli growth	UCH37 DUB inh	Structure
97	0.7	5.3	Cc1ccc(C)c(NC(=S)NN=C2CCCCc3ccccc32)c1
98	0.71	0.1	Cc1nc2ccccc2cc1C(=O)NN=Cc1cccc([N+](=O)[O-])c1
99	0.64	2.2	CC(=NNc1nc(N)cc(Cl)n1)c1ccc(F)cc1
100	0.71	3.6	Cc1ccc(S(=O)(=O)NN=Cc2cn(CC(N)=O)c3ccccc23)cc1C
101	0.73	-1.7	O=C(CNc1ccc2c(c1)OCO2)NN=Cc1ccccc1Cl

High-throughput results as filed in PubChem.
